Source: PubChem BioAssay
2A StopGo: High Throughput Screening for Foot and Mouth Disease Virus Antivirals | human cells with a luciferase reporter of 2A StopGo recoding; control for the full effect not named in the record | 1.2% of 410,000 active | Potency, µM (highest dose often 57.9 µM), without a hit: top-dose signal change, negative = less light; active = well fitted falling curve with a large enough effect; inconclusive = small, poorly fitted or top-dose-only effect; inactive = no such curve, though single readings can be large or run the other way; tested in HEK293T cells; note: % is set by controls: 0 for no effect and ±100 for the full control effect; nearly all actives have a fitted effect of over 45% in size; luciferase light after 4 h
LASV entry inh: qHTS for Inhibitors of binding or entry into cells for Lassa Virus | Lassa virus pseudotype entry inhibition, cell reporter; control for the full effect not named in the record | 1.2% of 300,000 active | Potency, µM (top dose mostly 37.9 µM), for the others: at the top dose activity change, negative = inhibition, usual class: inhibitors | AID 540256, 2011; active means well fitted inhibition curve with a large enough effect; inconclusive means small, poorly fitted or top-dose-only effect, or effect the other way; inactive means flat fitted curve, though single readings scatter; tested in HEK293 cells; note: % is set by controls: 0 for no effect and ±100 for the full control effect; nearly all actives have a fitted effect of over 50% in size; luciferase read-out
Marburg entry inh: qHTS for inhibitors of binding or entry into cells for Marburg Virus; Marburg virus pseudotyped entry inhibition, cell reporter; control for the full effect not named in the record; about a third of the inactives were read at about 46 µM; Potency, µM (doses to about 37.8 µM), for the others: at the top dose activity change, negative = inhibition, actives largely listed as inhibitors; 1.8% of 300,000 active; AID 540276, 2011; active = well fitted inhibition curve with a large enough effect; inconclusive = small, poorly fitted or top-dose-only effect, or effect the other way; inactive = flat fitted curve, though single readings scatter; tested in HEK293 cells; about a fifth of its hits are not listed in these tables; note: % is set by controls: 0 for no effect and ±100 for the full control effect; luciferase read-out
SARS PLP yeast: qHTS of Yeast-based Assay for SARS-CoV PLP; Potency, µM (top dose mostly 32.9 µM), inactives show top-dose activity, positive = growth rescue; S. cerevisiae expressing SARS-CoV PLpro, growth rescue; control for the full effect not named in the record; AID 485353, 2010; 0.19% of 330,000 active; note: 0% is about no effect; nearly all actives have a fitted effect of over 55% in size; growth read by luminescence after 48 h
Cruzain inh Det: qHTS Assay for Promiscuous and Specific Inhibitors of Cruzain (with detergent) | 0.43% of 200,000 active | Potency, µM, inactives show max response, negative = inhibition, most hits filed as inhibitors | purified cruzain, Z-FR-AMC fluorescence, 0.01% Triton; active = well fitted curve in the direction sought with a large enough effect; inconclusive = small, poorly fitted or top-dose-only effect, or another doubt; inactive = no such curve, though single readings can be large; an effect the other way counts as inactive or inconclusive;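 note: plate controls were neutral wells for no effect and buffer without enzyme for full effect; nearly all actives have a fitted effect of over 40% in size; top concentration of the series not given in the record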
Target sequence (P25779 123-467 limits assumed): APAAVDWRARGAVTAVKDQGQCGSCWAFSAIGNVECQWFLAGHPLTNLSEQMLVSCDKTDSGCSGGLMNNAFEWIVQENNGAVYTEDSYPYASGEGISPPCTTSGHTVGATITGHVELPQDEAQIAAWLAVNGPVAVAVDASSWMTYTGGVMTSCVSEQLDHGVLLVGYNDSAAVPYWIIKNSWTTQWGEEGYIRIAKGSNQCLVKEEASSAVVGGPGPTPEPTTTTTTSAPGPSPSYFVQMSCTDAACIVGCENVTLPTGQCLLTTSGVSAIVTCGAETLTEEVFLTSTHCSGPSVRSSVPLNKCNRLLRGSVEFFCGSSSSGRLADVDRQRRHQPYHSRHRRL
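Detergent-containing run (0.01% Triton X-100) in acetate buffer pH 5.5 with 5 mM DTT: enzyme at 1.5 nM final, 15 min compound preincubation at room temperature, then 2 uM Z-FR-AMC substrate. Activity taken as 60 s fluorescence increase at 360/450 nm.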
NS1 function inh: qHTS Assay for Inhibitors of Influenza NS1 Protein Function; Potency, µM (top dose mostly 46.1 µM), inactives show top-dose activity, positive = more growth; S. cerevisiae slowed by influenza A NS1, growth recovery by OD600; 0.4% of 270,000 active; AID 2326, 2010; note: actives are rising curves; nearly all actives have a fitted effect of over 50% in size
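Compounds were scored for reversing the slow growth caused by influenza A NS1 in S. cerevisiae, measured by optical density at 600 nm. Assay medium contained 2% galactose at pH 6.0; NS1-free yeast of the same strain were the positive control.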
Cruzain inh noDet: qHTS Assay for Promiscuous and Specific Inhibitors of Cruzain (without detergent); Cruzipain (Trypanosoma cruzi), P25779; purified cruzain, Z-FR-AMC fluorescence, no detergent; Potency, µM, inactives show max response, negative = inhibition, actives largely listed as inhibitors; 2.3% of 200,000 active; AID 1476, 2009; active = well fitted curve in the direction sought with a large enough effect; inconclusive = small, poorly fitted or top-dose-only effect, or another doubt; inactive = no such curve, though single readings can be large; an effect the other way counts as inactive or inconclusive;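 note: plate controls were enzyme without inhibitor for no effect and buffer without enzyme for full effect; nearly all actives have a fitted effect of over 40% in size; top concentration of the series not given in the record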
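Detergent-free condition (0.00005% Triton X-100) in acetate buffer pH 5.5 with DTT. 1.5 nM enzyme and compound were pre-mixed 15 min, then 2 uM Z-FR-AMC substrate added; reaction progress from fluorescence change between first and third reads (60 s).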
RE007 growth inh: qHTS Assay for Inhibitors of the HIV-1 protein Vpr | S. pombe RE007 Vpr strain, BacTiter-Glo ATP luminescence, 24 h; control for the full effect not named in the record | Potency, µM (doses to about 92.2 µM), without a hit: top-dose activity change, negative = less growth | 0.21% of 360,000 active; active = well fitted falling curve with a large enough effect; inconclusive = small, poorly fitted or top-dose-only effect; inactive = no such curve, though single readings can be large or run the other way;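 note: % is set by controls: 0 for no effect and ±100 for the full control effect; nearly all actives have a fitted effect of over 50% in size; the assay follows cell death caused by Vpr and the record does not say whether a fall means rescue or toxicity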
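Fission yeast RE007 carrying one integrated HIV-1 vpr copy, seeded at OD 0.01 in PMG+AL medium with 23 nL pinned compound. Grown 24 h at 30 degrees; viability read by BacTiter-Glo luminescence after 5 min.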
Starred values were filed as active, the others as inactive; ? = inconclusive; · = no result given; & = joins results of further samples; [ ] = remark or other dose. Unless noted, calls come from the whole dose curve; as a rule, active means well fitted rising curve with a large enough effect; inconclusive means small, poorly fitted or top-dose-only effect; inactive means no such curve, though single readings can be large or run the other way. Potency is the fitted concentration of half-maximal effect.

entry	Molecule	2A StopGo	LASV entry inh	Marburg entry inh	SARS PLP yeast	Cruzain inh Det	NS1 function inh	Cruzain inh noDet	RE007 growth inh
1	CCCCC(=O)N(Cc1nc2sc(C)c(C)c2c(=O)[nH]1)C1CCCC1	-22%	-9%	-16%[46.1 µM]	-2%	·	-9%	·	5%
2	N#Cc1nc(-c2ccco2)oc1NCc1ccc(F)cc1	-8%	10%	-7%	-17%	-4.9%	-82%	9%	9%
3	CCN1CCCc2cc(CN(CCN3CCOCC3)C(=S)Nc3cccc(C)c3)ccc21	-7%	?	?	5%	·	·	·	-15%
4	CCc1ccc(NC(=O)CSc2nnnn2-c2cccnc2)cc1	-9%	-14%	18%	·	·	11%	·	-13%
5	CCC(C)NC(=O)CN1C(=O)NC2(CCc3ccccc3C2)C1=O (stereo not drawn)	-18%	5%	21%[46.1 µM]	3%	·	1%	·	21%
6	O=C(NCCn1cccn1)C1CCC(=O)N(CC2CCCCC2)C1 (stereo not drawn)	-5%	-6%	29%	1%	·	10%	·	-5%
7	O=c1/c(=C/c2cn(-c3ccccc3)nc2-c2ccc(F)cc2)sc2nc3ccccc3n12	·	·	·	3%	7.7%	2%	-2%	·
8	CCOC(=O)N1CCC(Nc2c(-c3ccc(C)c(C)c3)c(=O)c2=O)CC1	-29%	-15%	?	-3%	-2.6%	1%	-6%	19%
9	O=C(Nc1ccc2oc(-c3cccc(F)c3)nc2c1)c1ccc2ccccc2c1	-8%	10%[46.1 µM]	·	·	0.1%	·	-3%	·
10	Cc1cccc(Cn2c(=O)n(CCCC(=O)NCc3ccccc3Cl)c(=O)c3ccccc32)c1	-25%	?	-7%[46.1 µM]	·	2.6%	·	3%	·
11	Nc1nc(Nc2cccc(Cl)c2)nc(NCCO)c1[N+](=O)[O-]	-6%	?	?	1%	·	2%	·	2%
12	O=c1c2ccccc2[nH]c(=S)n1CCN1CCc2ccccc2C1	-18%	8%	?	-3%	·	-4%	·	-11%
13	CCn1c(=O)cc(OCC(=O)NCc2cccs2)c2ccccc21	2%	-21%	-1%[46.1 µM]	1%	·	·	·	4%
14	CCOc1ccc(N=C(NC#N)SCC(=O)NC2CC2)cc1	4%	-18%	22%&22%	8%	0.8%	-1%	-5%	3%
15	CC(=O)c1cccc(N=Nc2c(C)[nH]c3ccccc23)c1	46%[activator]	17%	-15%	-20%	-13%	-10%	-11%	3%
16	CC(Cc1ccccc1)NC(=O)Cc1ccc([N+](=O)[O-])cc1 (stereo not drawn)	10%	·	·	-2%	·	-4%	·	1%
17	CCOc1c(C)cnc2c1c(=O)n(CC(=O)NCC1CCCO1)c(=O)n2C (stereo not drawn)	-12%	5%	10%	·	·	·	·	4%
18	CCn1c(=O)c2ccccc2n2c(SCC(=O)NCc3cccs3)nnc12	-21%	7%	5%	-2%	-5.3%	0%	0%	-13%
19	CCOC(=O)c1nn(-c2ccc([N+](=O)[O-])cc2)cc1O	40%[activator]	·	·	1%	·	0%	·	-10%
20	COCCn1c(SC(C)C(=O)Nc2ncc(Cl)cc2Cl)nc2ccccc21 (stereo not drawn)	?	1.4µM*	2µM*	-6%	-1.0%	-3%	0%	24%
21	COc1ccc(-n2c(SC(C)C(=O)Nc3ccc(NC(C)=O)cc3)nc3ccccc3c2=O)cc1OC (stereo not drawn)	19%	-12%	-2%[46.1 µM]	-2%	·	9%	·	-1%
22	CC(C)Oc1ccc(C(=O)NC(C)(C)CO)cc1	20%	-2%	15%	10%	4.5%	7%	12%	-10%
23	O=C(NCc1nnc(SCC(=O)N2CCOCC2)o1)c1c(F)cccc1Cl	1%	-4%	19%[46.1 µM]	1%	·	·	·	9%
24	CCN1CCn2c3c(c4cc(Br)ccc42)CCCC31 (stereo not drawn)	-19%	-2%	?	·	·	·	·	-22%
25	CCCN1CCN(CCCNC(=O)Cn2cc3c(n2)CCCC3)CC1	-13%	·	·	-4%	-1.3%	-5%	-3%	5%
26	CC(=O)Nc1sc(N/N=C/c2ccc(C)cc2)nc1-c1ccc(C)cc1	27%	·	·	10%	·	8%	·	3%
27	O=C(NC1CCN(S(=O)(=O)c2cccc(F)c2)CC1)c1ccc(F)cc1	0%	·	·	-5%	·	-2%	·	5%
28	COc1ccc(N2C(=O)Cc3ccccc3C2=O)cc1	-3%	14%	?	2%	·	0%	·	3%
29	CC(C)C(c1nnnn1C1CCCC1)N1CCc2ccccc21 (stereo not drawn)	-17%	?	?	2%	0.0%	-21%	2%	-21%
30	Cc1[nH]c2ccccc2c1[C@H]1[C@@H](CC#N)C1(C)C	-24%	4%	0%	-21%	-9.1%	-12%	-4%	0%
31	CNC(=S)NN=C(C)c1ccc(OC)cc1O	48%[activator]	4%	?	·	·	·	·	10%
32	COc1ccc(NC(=O)c2ccc(S(=O)(=O)N(C)c3ccccc3)cc2)cn1	18µM*	·	·	-1%	·	-30%	·	13%
33	CCCCC(=O)NC(=S)Nc1ccccc1N1CCCCC1	2%	?	?	-12%	-6.2%	-26%	-2%	·
34	O=C1OC(COc2ccc(Br)cc2)CN1c1ccccc1 (stereo not drawn)	1%	?	5%	-1%	·	4%	·	2%
35	O=C(C(=NNc1ccccc1)c1ccccc1)c1ccccc1	-19%	?	?	·	·	·	·	-11%
36	COc1ccc(C2CC(=O)c3c([nH]c(C(=O)OCCOc4ccccc4)c3C)C2)cc1OC (stereo not drawn)	?	-15%[46.1 µM]	?	·	-0.5%	·	3%	·
37	CCCOc1ccccc1C(=O)Nc1ccc(S(=O)(=O)N2CCN(C)CC2)cc1	-14%	·	·	-3%	·	-9%	·	-7%
38	N#Cc1cc2c(nc1SCC(=O)N1CCCCC1)CCCCC2	-3%	10%	0%[46.1 µM]	·	-11%	-33%	-4%	-16%
39	Cc1ccc(NCC(=O)N2CCN(S(=O)(=O)c3ccccc3)CC2)cc1F	-11%	-8%	-22%	1%	·	·	·	-14%
40	O=[N+]([O-])c1ccc(Oc2ccc(Oc3ccc(C(F)(F)F)cn3)cc2)nc1	?	·	·	-2%	·	-1%	·	25%
41	O=C(O)c1ccc(/C=N/N2CCN(Cc3ccc(Cl)cc3)CC2)cc1	1%	-27%[46.1 µM]	-6%[46.1 µM]	1%	·	0%	·	7%
42	O=S(=O)(Nc1ccc(F)cc1)c1ccc(NS(=O)(=O)c2cccs2)cc1	20%	-22%	-5%	2%	·	1%	·	-6%
43	CCN(CC)C(=O)C1CCCN(c2ncnc3c2c(-c2ccccc2)cn3-c2cccc(C)c2)C1 (stereo not drawn)	?	?	·	·	-1.9%	·	?	·
44	COc1cccc(C(=O)NC2CCN(C(=O)N3c4ccccc4Sc4ccccc43)CC2)c1	·	?	10µM*	-14%	1.4%	21%	?	11%
45	CN(Cc1ccccc1)S(=O)(=O)c1ccc2[nH]c(=O)ccc2c1	0%	·	·	-1%	·	-3%	·	-1%
46	COC(=O)c1cccc(NC(=O)c2ccc(OC)c(Cl)c2)c1	8%	-27%[46.1 µM]	?	-1%	·	-15%	·	-19%
47	Cc1ccc(S(=O)(=O)N2CCCCC2)cc1NC(=O)C1CC(=O)N(Cc2ccco2)C1 (stereo not drawn)	-6%	2%	?	-2%	·	·	·	-20%
48	CCOc1ccc(CCNC(=O)c2ccc(Nc3nc4ccccc4n4nnnc34)cc2)cc1OCC	?	?	-1%[46.1 µM]	·	1.2%	·	-1%	·
49	CC(C)(C)NC(=O)CCSc1nnc(-c2ccco2)o1	32%[activator]	21%[46.1 µM]	0%[46.1 µM]	0%	·	·	·	0%
50	Cc1ccccc1-c1nc(C#N)c(N2CCCCC2)o1	33%[activator]	17%	29%	-4%	·	-5%	·	-6%
51	COc1ccc(/C=C/C(=O)NC(=S)NNC(=O)c2cccnc2)cc1	?	?	?	-20%	-3.5%	-1%	-1%	-8%
52	Cc1nc(NC(=O)C23CC4CC(CC(C4)C2)C3)sc1Cc1ccc2c(c1)OCO2	11%	-3%	29%	-20%	-3.3%	-6%	?	11%
53	Oc1cccc(Oc2ncc(C(F)(F)F)cc2Cl)c1	-7%	-18%[46.1 µM]	-16%&-16%[46.1 µM]	-2%	·	-1%	·	6%
54	COc1ccc(OC)c(-n2nnc(-c3nc(-c4cc(OC)c(OC)c(OC)c4)no3)c2C)c1	-20%	3%[46.1 µM]	·	·	2.7%	·	3%	·
55	CCC12CN3CC(CC)(CN(C1)C3c1c(O)ccc3ccccc13)C2=O (stereo not drawn)	-29%	?	-10%&-10%	2%	-0.1%	5%	-14%	2%
56	C=C1c2cc(C)ccc2NC(=O)N1c1ccccc1	8%	4%	11%	-12%	0.2%	-4%	-8%	10%
57	COc1ccc(S(=O)(=O)Oc2cccc(/C=N/N=C3/NC(=O)C(CC(=O)O)S3)c2)cc1 (stereo not drawn)	-1%	-14%	9%[46.1 µM]	0%	·	-2%	·	13%
58	Cc1ccc(NC(=O)CCC(=O)NNC(=O)c2ccco2)cc1C	-1%	19%	15%	-8%	-5.9%	10%	4%	-11%
59	Cc1cccc(NCC(=O)N/N=C\c2c[nH]c3ccccc23)c1	16%	?	?	-4%	·	·	·	-16%
60	CCc1nc(Nc2ccc(F)cc2)c2oc3ccccc3c2n1	?	·	·	-5%	·	-54%	·	16%

Carrying on.
entry	Molecule	2A StopGo	LASV entry inh	Marburg entry inh	SARS PLP yeast	Cruzain inh Det	NS1 function inh	Cruzain inh noDet	RE007 growth inh
61	COCCN1Cc2cccc(C(=O)Nc3c(C)cccc3C)c2C1=O	2%	-2%	5%	-6%	5.1%	-65%	5%	21%
62	Cc1ccc(S(=O)(=O)N2CCCOC2CNC(=O)C(=O)NC2CCCC2)cc1 (stereo not drawn)	1%	5%	4%	6%	·	1%	·	1%
63	CCOc1ccc(-n2nc3ccc(NC(=O)Cc4ccccc4)cc3n2)cc1	22µM*	-7%[46.1 µM]	·	·	-0.6%	·	?	·
64	Cc1cc(C)cc(-n2c(C)c3c(C)nnc(C)c3c2C)c1	0%	?	?	-17%	-3.9%	6%	5%	-7%
